# Screening results deposited in PubChem by Fisher Drug Discovery Resource Center.
# NPYLR7 agonist: agonists of mosquito NPYLR7 receptor, primary screen, cell-based, Aedes aegypti, calcium fluorescence, mosquito biting behavior. HEK293T NPYLR7/Galpha15, GCaMP6s calcium fluorescence. AID 1259423, 2018. activation, % at 10 µM. Aedes aegypti neuropeptide Y-like receptor 7 (NPYLR7). 0.15% of 270,000 active; in the data active = activation above about 40%;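 also: 0% = vehicle and 100% = reference agonist at the receptor; some compounds past the cut are filed as inactive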
# NPYLR7 agonist max-min: second read-out of NPYLR7 agonist, no call of its own (marks repeat the call); activation, %; measured here: Max-Min RFU normalised activation; some inactives read as strong as hits;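 span of the calcium signal over five minutes; 0% = vehicle and 100% = native peptide agonist; compound fluorescence can raise it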
# The depositor's hits bear a star. A portion of the library; the hit share may differ from the screen's.
SMILES,NPYLR7 agonist,NPYLR7 agonist max-min
O=C(O)C1Cc2cc(Cl)ccc2O1 (stereo not given),4,1
COc1cccc(Oc2cnn(-c3ccccc3)c(=O)c2Nc2cccc(C(=O)NCc3cccnc3)c2)c1,5,9
CC(C)Sc1nc2c(c(=O)[nH]c(=O)n2C)n1CCCc1ccccc1,-5,0
Cc1nn2c(NCCN(C)C)c3c(nc2c1-c1ccccc1)CCC3,4,6
O=C(c1ccc(S(=O)(=O)N2CCOCC2)cc1)N1CCN(Cc2ccc3c(c2)OCO3)CC1,-4,-7
CC1CCCN(C(=O)c2ccc(Cl)c(S(N)(=O)=O)c2)C1 (stereo not given),3,0
COc1cccc(/C=N\Nc2nc(-c3ccccc3)c3cc(C)ccc3n2)c1,-8,-10
CCCN(CC(=O)N(C)C)Cn1ncn(-c2ccccc2C)c1=S,0,15
CCCCNC(=O)C1(C)CCN1C(=O)c1sccc1C (stereo not given),3,-1
O=C(c1cccs1)N1CCCN(c2cc(Oc3ccc(F)c(Cl)c3)ncn2)CC1,-10,-9
CCCCN(CC(=O)Nc1c(-c2ccccc2)c(C)nn1-c1ccccc1C)C(=O)NC1CCCCC1,-6,-4
O=C(Nc1nnc(-c2ccc(F)cc2)o1)C1CCN(S(=O)(=O)c2ccccc2C(F)(F)F)CC1,7,2
CCCn1ccnc1-c1c(-c2ccccc2)ncn1Cc1ccc(CO)cc1,7,0
Cc1cc(C(C)(O)CNc2cncc(Cl)n2)c(C)o1 (stereo not given),-2,-4
O=C(CSc1nc2c(c(=O)n1-c1ccccc1)SCC2)Nc1ccc(-c2ccccc2)cn1,-1,-2
Cc1csc(C2(C#N)Cc3ccccc3N3CCCC32)n1 (stereo not given),8,4
C[n+]1cn(C2=C(NS(=O)(=O)c3ccccc3)C(=O)c3ccccc3C2=O)c2ccccc21,9,7
COc1ccc(-c2noc(Nc3cc(OC)ccc3OC)n2)cc1,0,-1
CC(=O)NC(C(=O)Nc1ccc(C)c(S(=O)(=O)N2CCCCCC2)c1)C1CCCC1 (stereo not given),10,3
O=C(c1ccc(Cn2cnnn2)cc1)N1CCC2(CC1)C(=O)Nc1ccccc12,10,5

# The list goes on (six carried over from the part before).
SMILES,NPYLR7 agonist,NPYLR7 agonist max-min
O=C(CSc1nc2c(c(=O)n1-c1ccccc1)SCC2)Nc1ccc(-c2ccccc2)cn1,-1,-2
Cc1csc(C2(C#N)Cc3ccccc3N3CCCC32)n1 (stereo not given),8,4
C[n+]1cn(C2=C(NS(=O)(=O)c3ccccc3)C(=O)c3ccccc3C2=O)c2ccccc21,9,7
COc1ccc(-c2noc(Nc3cc(OC)ccc3OC)n2)cc1,0,-1
CC(=O)NC(C(=O)Nc1ccc(C)c(S(=O)(=O)N2CCCCCC2)c1)C1CCCC1 (stereo not given),10,3
O=C(c1ccc(Cn2cnnn2)cc1)N1CCC2(CC1)C(=O)Nc1ccccc12,10,5
O=C(Cc1csc(NC(=O)NC2CCCC2)n1)Nc1ccc(Oc2ccccc2)cc1,-6,-5
COc1ccc(OC)c(C2C(=C(O)c3ccccc3)C(=O)C(=O)N2CCCN2CCOCC2)c1 (stereo not given),15,18
O=C(CSc1nnc(-c2ccccc2)n1-c1ccccc1)N/N=C\c1ccc(O)cc1O,-6,-13
CN(C(=O)CSc1n[nH]c(N)n1)C1(c2ccccc2Cl)CCCCC1=O (stereo not given),1,-2
O=C(Cn1nc(-c2cccs2)c2sc(N3CCOCC3)nc2c1=O)NCCc1ccccc1,-2,-7
C=CCNC(=O)C(NC(=O)c1cccc(C)c1)C1CCN(C(=O)c2ccco2)CC1 (stereo not given),-4,-8
CC(C(=O)n1cccn1)n1cc([N+](=O)[O-])cn1 (stereo not given),3,-1
COc1cccc(-c2cnc(-c3cccc(CNC(=O)c4cc(C)oc4C)c3)[nH]2)c1,5,-5
C#CCOc1cccc(NC(=O)C(C)n2nc(C)cc2C)c1 (stereo not given),-2,-7
O=C(Oc1cccc2cccnc12)c1ccccc1Br,-13,-14
O=C(c1ccc(CSc2ccc(F)c(F)c2)cc1)N1C2CCC1CC(Oc1ccc3c(c1)OCO3)C2 (stereo not given),9,-2
CC1CN2CCCC2CN1S(=O)(=O)CC1CCCO1 (stereo not given),4,4
COc1ccc(N2CCN(C(=O)c3ccc(Cl)cc3Cl)C(C)C2=O)cc1OC (stereo not given),-8,-2
CCCn1nccc1NC(=O)N1CC2CCCCC21c1ccccc1 (stereo not given),-17,-18
CC(C)c1ccccc1NC(=O)CN(C)S(=O)(=O)c1ccc2c(c1)OCCCO2,6,2
CCN=c1scc(-c2ccc(F)cc2)n1N=C(C)CC(C)C,8,5
O=S(=O)(c1ccc(Cl)cc1)C1(S(=O)(=O)c2ccc(Cl)cc2)CCCC1,4,-6
Cc1nc(C(C)C)sc1C(=O)NCCNS(C)(=O)=O,10,5
Cc1nc2ccc(C(=O)OCC(=O)c3ccccc3)cc2nc1C,-2,-4
Cc1noc(-c2ccc(N(C)Cc3nccs3)nc2)n1,14,14

# Structures above containing an NH in an aromatic ring, in the order listed:
SMILES,NPYLR7 agonist,NPYLR7 agonist max-min
CC(C)Sc1nc2c(c(=O)[nH]c(=O)n2C)n1CCCc1ccccc1,-5,0
CN(C(=O)CSc1n[nH]c(N)n1)C1(c2ccccc2Cl)CCCCC1=O (stereo not given),1,-2
COc1cccc(-c2cnc(-c3cccc(CNC(=O)c4cc(C)oc4C)c3)[nH]2)c1,5,-5

# Next section.
SMILES,NPYLR7 agonist,NPYLR7 agonist max-min
CC(=O)Nc1ccc(C2C3=C(CC(C)(C)CC3=O)N=C3NN(c4ccccc4)C(=O)C32)cc1 (stereo not given),3,32
O=C(NCCc1csc(-c2cnccn2)n1)C1CC2(CCNCC2)CN1 (stereo not given),5,5
Nc1sc2c(c1-c1nc3ccccc3s1)CCN(Cc1ccccc1)C2,24,27
O=C(c1cn(CCN2CCOCC2)nn1)N1CCC(c2nc3ccccc3o2)CC1,-5,-6
CCc1nc2ccc(C(=O)NCCCn3ccnc3)cn2c1N(C)Cc1ccc(Cl)cc1,-4,-6
COc1ccc(CCN(C)C(=NC(=O)c2cccc(C)c2)OC(C)C)cc1OC,2,-5
COCC(C)NC(=O)c1cccc(NS(=O)(=O)c2ccc3n[nH]nc3c2)c1 (stereo not given),-1,-1
O=C(Nc1cccnc1)c1cccnc1Nc1cccc(C(F)(F)F)c1,19,6
COc1ccc(NC(=O)Nc2c(-c3ccccc3)n[nH]c2C2CCOCC2)cc1,11,-3
CSc1ccc(-c2cc(C(=O)O)c3[nH]c(C)nc3n2)cc1,-2,-3
Cc1cccc(NS(=O)(=O)c2cccc(C(=O)Nc3ccccc3C)c2)c1,-15,-19
COc1ccccc1CN(Cc1cccc(C(F)(F)F)c1)Cc1nc(C(=O)O)co1,12,10
CS(=O)(=O)c1ccc(NC(=O)Cc2ccc(Cl)nc2)cn1,-1,-1
CCC(C)N(Cc1cc(Cl)ccc1OS(C)(=O)=O)C(=O)Nc1ccccc1OC (stereo not given),-1,10
S=c1nc(C=Cc2ccccc2)[nH]n1CN1CCN(Cc2ccncc2)CC1,5,10
Cc1ccc2cc(CCNC(=O)C(C)Oc3ccccc3)c(=O)[nH]c2c1 (stereo not given),0,26
COC(=O)c1ccc(C=C2N=C(c3ccc(F)cc3)OC2=O)cc1,0,-1
Cn1c(=O)c([N+](=O)[O-])c(N2CCN(Cc3cccc4ccccc34)CC2)c2ccccc21,12,5
Cn1c(=O)[nH]c(=O)c2c1nc(N1CCCC1)n2CCCSc1ncccn1,-1,-4
CCC(C)N(CC(=O)N(CCc1ccc(OC)c(OC)c1)Cc1cccs1)C(=O)Nc1ccc(C)cc1 (stereo not given),-1,4
Cc1ccc(-c2ocnc2C(=O)Nc2ccc(F)c(C(N)=O)c2)cc1,1,0
O=C(Cc1ccsc1)NCCN1C(=O)SC(=Cc2cccs2)C1=O,10,11
CC(=O)OC(C(=O)N(C)CCCN1c2ccccc2CCc2ccccc21)c1ccccc1 (stereo not given),-10,-11
O=C(CCC1CCCN(Cc2ccccc2OC(F)F)C1)N1CCOCC1 (stereo not given),11,-1
CN(Cc1nc(-c2ccncc2)no1)C(=O)C1(c2ccccc2F)CC1,-1,-3
O=C1OC(Nc2ccc(F)c(F)c2)c2ccccc21 (stereo not given),16,6
Cc1cccnc1C(NC(=O)C1CCN(CCOc2ccc(Br)cc2)CC1)c1ccc(Cl)cc1 (stereo not given),8,-2
O=C1CSC(=S)N1Nc1ccccc1,-7,-8
Cc1ccccc1CC(=O)NCc1cccnc1N(C)C,4,4
CC(Cn1cccn1)C(=O)N1CCC(c2cc(C(C)C)n[nH]2)CC1 (stereo not given),7,4
COc1ccc(CC(=O)N2CCOC(c3ccccc3)C2)cn1 (stereo not given),0,2
CC(CNC(=O)c1ccccc1Br)c1ccccc1 (stereo not given),1,1
CC(=O)NCC1=CCCN(Cc2csc(-c3ccccc3)n2)C1,-5,-6
Cc1ccc(-c2nnc(SCC(=O)NC3CC3)o2)cc1,9,3
COC(=O)c1ccccc1CC1SC(N)=NC1=O (stereo not given),2,2
COc1ccc(/C=C/C(=O)NCC(=O)N=Nc2c(O)[nH]c3ccccc23)cc1,-3,-8
CN(Cc1ccco1)C(=O)c1nn(C)c2c1CC(NCc1nc(-c3ccccc3)cs1)CC2 (stereo not given),20,10
Cc1cc2ncn(CCOc3ccccc3C)c2cc1C,3,4
CC(C)SCC(=O)N1CCCC(N2CCN(c3ccccc3)CC2)C1 (stereo not given),1,-3
CCc1nc2ccc(C(=O)NCCOc3ccc(OC)cc3)cn2c1N(C)CC,-15,-18

# Among those listed so far, 6 contain a thiophene ring, fused or not.
SMILES,NPYLR7 agonist,NPYLR7 agonist max-min
CCCCNC(=O)C1(C)CCN1C(=O)c1sccc1C (stereo not given),3,-1
O=C(c1cccs1)N1CCCN(c2cc(Oc3ccc(F)c(Cl)c3)ncn2)CC1,-10,-9
O=C(Cn1nc(-c2cccs2)c2sc(N3CCOCC3)nc2c1=O)NCCc1ccccc1,-2,-7
Nc1sc2c(c1-c1nc3ccccc3s1)CCN(Cc1ccccc1)C2,24,27
CCC(C)N(CC(=O)N(CCc1ccc(OC)c(OC)c1)Cc1cccs1)C(=O)Nc1ccc(C)cc1 (stereo not given),-1,4
O=C(Cc1ccsc1)NCCN1C(=O)SC(=Cc2cccs2)C1=O,10,11

# Other records follow.
SMILES,NPYLR7 agonist,NPYLR7 agonist max-min
N#Cc1cccc(NC(=O)c2cc3c(s2)CCCC3)c1,4,1
Cc1nc(C2(NC(=O)COc3ccc(C)c(C)c3)CCCCC2)no1,5,4
COCCCNC(=O)C(NC(=O)c1cccc(C)c1)C1CCN(S(=O)(=O)c2ccc(C)cc2)CC1 (stereo not given),-2,5
COC(=O)c1cccc2c3c([nH]c12)CCN(c1ncccn1)C3,-15,-16
CCOCCn1c(CN2CCCC(C)C2)nc2c1c(=O)n(C)c(=O)n2C (stereo not given),6,3
COc1ccc(C(=O)Nc2ccnn2C2CCN(C(=O)C3=CCCC3)CC2)cc1,-6,-7
CCc1nc(C)nc(N2CCN(C(=O)c3cccs3)CC2)c1Cc1cc(C)ccc1C,5,8
COc1ccc(/C=C/C(=O)Nc2c3c(nn2C(C)(C)C)CSC3)cc1OC,-4,-7
CCOC(=O)c1ccc(NC(=O)CSc2nc3c(c(=O)[nH]2)CN(CCc2ccccc2)CC3)cc1,-9,-12
CC(=O)OC(c1ccccc1)c1nc(C2CCNCC2)no1 (stereo not given),5,4
CCC(C)NCc1csc(COc2cccc(C)c2C)n1 (stereo not given),-1,3
CCc1cc2c(=O)n(CCC(C)C)c(=S)[nH]c2s1,-2,-2
C=CCOc1ccc(CN(C)CN2C(=O)NC3(CCCCC3C)C2=O)cc1 (stereo not given),-4,-6
CCOC(=O)c1ccc(NC(=O)N(Cc2cccc(OS(C)(=O)=O)c2)C(C)CC)cc1 (stereo not given),4,14
COc1cccc(CC2(CO)CCN(Cc3cc(F)ccc3-n3cccn3)CC2)c1,3,1
CC(C)c1nc2ccccc2c2c1C(=O)N(CCCn1cccn1)C2=O,2,1
Cc1oc2c3c(ccc2c(=O)c1-c1ccccc1)OCN(Cc1ccccn1)C3,-3,-6
CC(c1ccccc1)N(Cc1cc(Cl)ccc1OCc1nc(CO)cs1)C(=O)c1cccc(F)c1 (stereo not given),6,13
CC1CN(C(=O)c2cc3ccsc3n2C(C)c2ccccc2)CCN1C(=O)c1ccco1 (stereo not given),-16,-10
CN(C)c1nc(N)nc(C(C#N)C(=O)c2ccco2)n1 (stereo not given),6,1
O=C(CSc1nncs1)Nc1ccc2oc3ccccc3c2c1,-6,4
CC(C)CCN1CCCn2cccc2C1c1cccc([N+](=O)[O-])c1 (stereo not given),21,19
CC(C)Nc1ccc(NS(=O)(=O)NCc2ccccc2)cn1,63*,55*
CCCn1cc(C(=O)Nc2cc(C(N)=O)ccc2N2CCCCC2C)c(C)n1 (stereo not given),23,9
Cc1ccc(N2CC(C(=O)N3CCN(c4ncnc5c4nnn5Cc4ccccc4)CC3)CC2=O)cc1 (stereo not given),-5,-5
Cc1[nH]ncc1CCCNc1ccc(C(=O)N2CCC(C)CC2)cn1,3,2

# Looked up one by one from the entries so far:
SMILES,NPYLR7 agonist,NPYLR7 agonist max-min
Cc1ccc(N2CC(C(=O)N3CCN(c4ncnc5c4nnn5Cc4ccccc4)CC3)CC2=O)cc1 (stereo not given),-5,-5
CC(C)CCN1CCCn2cccc2C1c1cccc([N+](=O)[O-])c1 (stereo not given),21,19
Cc1[nH]ncc1CCCNc1ccc(C(=O)N2CCC(C)CC2)cn1,3,2
